# Screening results: PubChem BioAssay, several laboratories
# LANA-H2B inh – blocks KSHV LANA binding to histone H2A/H2B. Q9QR71. cell-free LANA-H2A/H2B peptide, fluorescence polarization. inhibition, % (no concentration beside the values). actives 0.6% (n = 320,000); in the data active means inhibition mostly above about 10%, no sharp cut-off; inactive means mostly below about 6.7%;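 further: stock transfer was 7.5 nL into about 10 µL; 0% = median of vehicle wells and 100% = median of positive control wells; one replicate is shown; the record names a cut of 25% in any replicate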
# ALR H2O2 inh – inhibitors of human sulfhydryl oxidase ALR. P55789. purified ALR, DTT oxidation, H2O2 HRP-luminol luminescence. inhibition, % (test concentration not listed). actives 3.8% (n = 290,000). AID 485317;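 active means mean and each replicate at 75% or more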;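 further: stock transfer was 7.5 nL into about 7.5 µL; 0% = neutral wells and 100% = wells with inactivated enzyme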
# E coli growth – E. coli growth inhibition | actives 0.21% (n = 330,000) | AID 1053175 | Escherichia coli growth, OD600, 23 h; active compounds read low | OD600 absorbance (concentration not given with the values);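 active means OD600 absorbance below the run mean of sample wells minus 3.6 SD, in any replicate, cut at about 0.56 in these data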;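 further: stock transfer was 300 nL into about 60 µL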
# HNF4A DNA FP – change in binding of human HNF4 alpha to DNA; P41235; HNF4a-FITC DNA binding, fluorescence polarization, 1 h; activity change, % at 10 µM; actives 0.3% (n = 360,000); AID 1224865; in the data active means activity change above about 30%, passing the limit was not always enough;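 further: controls were the assay level and a saturating level of protein; the project sought stronger binding though the title names inhibitors; some compounds called inactive have numbers as strong as hits; positive values seem to mean higher polarization but the record does not say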
# UCH37 DUB inh – inhibitors of human deubiquitinating enzyme UCH37; Q9Y5K5; purified proteasome/UCH37, Ub-AMC cleavage fluorescence; inhibition, % (concentration not given with the values); actives 0.33% (n = 330,000); AID 588478;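 active means mean of two replicates above 20%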;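 further: 0% = compound-free wells with enzyme and 100% = wells lacking proteasome; stock transfer was 100 nL into about 20 µL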
# Target sequence (Q9Y5K5 whole entry, looked up): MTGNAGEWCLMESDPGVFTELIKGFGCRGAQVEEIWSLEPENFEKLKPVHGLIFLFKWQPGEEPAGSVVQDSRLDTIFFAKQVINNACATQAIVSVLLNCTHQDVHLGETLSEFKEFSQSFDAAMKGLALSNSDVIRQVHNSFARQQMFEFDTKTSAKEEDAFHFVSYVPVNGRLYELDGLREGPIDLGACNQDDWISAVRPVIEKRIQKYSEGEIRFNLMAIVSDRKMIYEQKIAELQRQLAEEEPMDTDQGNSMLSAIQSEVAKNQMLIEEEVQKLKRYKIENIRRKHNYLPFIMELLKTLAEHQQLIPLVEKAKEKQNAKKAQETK
#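 Schedule: 30 min plus 25 min, room temperature / Material: human UCH37 within purified proteasomes / Technique: AMC fluorescence intensity at 355/460 nm / Buffer or medium: pH 7.4 Tris-HCl (50 mM) with ovalbumin, ATP-MgCl2, DTT / Controls: wells without proteasome as full block, compound-free enzyme plus substrate as uninhibited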
# Beta2AR agonist – human beta-2 adrenergic receptor agonism by FAP; Am2.2-beta2AR cells, FAP receptor internalization, flow cytometry; reference of the scale not given here; response, % (test concentration not listed); P07550; actives 0.43% (n = 340,000);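 active means response above a set limit, near 3 SD of response in nonfluorescent compounds, cut at about 42% in these data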;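 further: stock transfer was 100 nL into about 11 µL; a reference agonist was the positive control; negative values mostly stem from fluorescent compounds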
# Target sequence (P07550 whole entry, looked up): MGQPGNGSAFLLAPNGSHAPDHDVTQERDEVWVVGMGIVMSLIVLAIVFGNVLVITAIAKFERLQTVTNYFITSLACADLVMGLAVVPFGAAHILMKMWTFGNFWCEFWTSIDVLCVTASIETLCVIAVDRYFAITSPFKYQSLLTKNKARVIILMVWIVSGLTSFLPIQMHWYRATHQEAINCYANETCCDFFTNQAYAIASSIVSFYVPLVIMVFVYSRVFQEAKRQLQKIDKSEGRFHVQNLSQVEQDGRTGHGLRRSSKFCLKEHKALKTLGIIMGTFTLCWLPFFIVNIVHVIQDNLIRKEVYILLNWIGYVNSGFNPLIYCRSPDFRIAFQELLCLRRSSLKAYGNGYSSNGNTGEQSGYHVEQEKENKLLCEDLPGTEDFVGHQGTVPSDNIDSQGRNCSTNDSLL
# FGF22 binding – shifts melting point of recombinant human FGF22 | Q9HCT0 | recombinant FGF22 thermal shift, SYPRO orange fluorescence; percent of sucrose octasulfate shift, DMSO zero | calls only at 9.99 µM | actives 1.5% (n = 340,000);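 active means melting point raised past a set limit in the mean and every replicate; three in four hits are not shown here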
# Target sequence (Q9HCT0 whole entry, looked up): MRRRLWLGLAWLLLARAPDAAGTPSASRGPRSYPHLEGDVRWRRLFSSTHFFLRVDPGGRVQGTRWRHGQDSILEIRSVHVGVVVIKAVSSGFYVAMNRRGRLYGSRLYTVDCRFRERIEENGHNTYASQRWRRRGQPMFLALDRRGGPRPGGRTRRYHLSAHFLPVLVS
# Starred values were filed as active, the others as inactive; i = inactive; nt = no result given; & = joins results of further samples. A portion of the library; rates above refer to the full screens.
# Sample of the layout:
SMILES,LANA-H2B inh,ALR H2O2 inh,E coli growth,HNF4A DNA FP,UCH37 DUB inh,Beta2AR agonist,FGF22 binding
Cc1ccc(CN2C(=O)C(CC(C)C)Nc3ncnc(N4CCOCC4)c32)cc1 (centres undefined),1.2,-1.3,0.681,-3.1&-2.5,0.2,-14.5,i
O=C(c1noc2c1CCCC2)N1CCC(CO)(Cc2ccccc2Cl)CC1,3.8,0.1,0.68,-1.2,0.1,-7.2,i
Cc1onc(-c2ccccc2)c1C(=O)Nc1ccccc1N1CCOCC1,2.9,-0.9,0.699,-0.3,6.6,5.0,nt
CCOc1ccc(NC(=O)COc2ccccc2)c([N+](=O)[O-])c1,2.2,-31.7,0.707,0.0,4.7,0.4,i

# The listing, previewed entries included:
SMILES,LANA-H2B inh,ALR H2O2 inh,E coli growth,HNF4A DNA FP,UCH37 DUB inh,Beta2AR agonist,FGF22 binding
Cc1ccc(CN2C(=O)C(CC(C)C)Nc3ncnc(N4CCOCC4)c32)cc1 (centres undefined),1.2,-1.3,0.681,-3.1&-2.5,0.2,-14.5,i
O=C(c1noc2c1CCCC2)N1CCC(CO)(Cc2ccccc2Cl)CC1,3.8,0.1,0.68,-1.2,0.1,-7.2,i
Cc1onc(-c2ccccc2)c1C(=O)Nc1ccccc1N1CCOCC1,2.9,-0.9,0.699,-0.3,6.6,5.0,nt
CCOc1ccc(NC(=O)COc2ccccc2)c([N+](=O)[O-])c1,2.2,-31.7,0.707,0.0,4.7,0.4,i
CCCNC(=O)/C(C#N)=C1\N=C(NC(=O)c2cccs2)c2ccccc21,14.7,-10.9,0.667,0.0,3.1,10.4,i
Cc1ccc(NC(=O)CN2CCN(C(=O)c3ccco3)CC2)cc1,-3.1,nt,0.695,-2.5,3.7,1.0,i
CNC(=S)NNC(=O)c1sccc1OCc1ccc(Cl)cc1Cl,1.2,-2.6,0.699,0.4,5.2,4.6,nt
O=C(C1CCN(S(=O)(=O)c2ccc(F)cc2)CC1)N1CC=C(c2ccccc2)CC1,-4.1,-4.6,0.698,1.4,4.9,-8.6,nt
CCCCSc1ncc(C(=O)OCC)c(N)n1,-7.7,-2.8,0.707,2.7,3.0,8.3,nt
Cc1cccc(N2CCN(CC(O)COCc3cccs3)CC2)c1C (centres undefined),0.8,8.7,0.632,0.0,2.5,-0.2,nt
Cc1cccc(N(C(=O)c2csnn2)C(C(=O)NC2CCCC2)c2ccncc2)c1 (centres undefined),0.7,12.0,0.678,2.8,0.6,4.2,i
COc1ccc(NC(=O)CNC(c2ccccc2)c2ccccc2)cc1Cl,-0.4,-6.6,0.696,1.3,2.9,3.5,i
CC(C)C[C@H]1CN([C@@H](CC(C)C)CN2CCC[C@@H]2CN2C(=O)C(=O)NC[C@@H]2Cc2ccccc2)C(=O)C(=O)N1CCc1ccccc1,nt,nt,nt,1.1,nt,8.5,i
CC(=O)NC(Cc1ccc(F)cc1)C(=O)NC1CCN(S(=O)(=O)c2ccccc2)CC1 (centres undefined),3.5,nt,0.701,1.3,0.8,-2.4,i
CCN(CC)CCNC(=O)CCc1n[nH]c(=O)c2ccccc12,5.9,0.6,0.699,2.2,-1.4,1.2,nt
COc1ccc(NS(=O)(=O)c2ccc(C)c(C(=O)N3CC(C)OC(C)C3)c2)cc1 (centres undefined),nt,nt,0.662,-0.7,-0.3,-2.8,i
CC(=O)c1cccc(CN2CCN(CCC(C)C)C(CCO)C2)c1 (centres undefined),-1.0,nt,0.675,-1.1,-2.9,-2.4,i
COc1cccc(NC(=O)Cn2cc(C(=O)C3CC3)c3ccccc32)c1,nt,nt,0.66,11.4,-0.5,-1.1,i
COc1ccc(OC)c(/C=N/NC(=O)c2ccc(=O)[nH]n2)c1,-2.0,-11.4,nt,-2.5,nt,-4.6,i
COc1ccc(N2CCN(C(=O)Nc3ccc(S(=O)(=O)N(C)C)cc3)CC2)cc1,6.3,8.4,0.648,1.4,-1.2,0.4,nt
Cc1cc(C(=O)c2ccccc2)nc2ccccc12,1.7,-11.1,0.696,2.3,6.6,-21.1,nt
COCc1cc(C)nc(SCC(=O)NCC2CCCO2)c1C#N (centres undefined),2.2,1.2,0.72,-0.9,-0.5,1.6,i
O=C1N=C(N2CCOCC2)S/C1=C\c1ccncc1,4.5,nt,0.69,2.3,3.9,2.2,i
COC(=O)CNC(=O)C1CC(=O)N(CCc2ccc(F)cc2)C1 (centres undefined),3.5,-2.8,0.581,1.1,2.6,4.5,i
C/C(=N\Nc1nc(N2CCCCC2)nc(N2CCOCC2)n1)c1ccccc1O,4.3,-1.1,nt,7.2,nt,12.0,i
# Other records:
SMILES,LANA-H2B inh,ALR H2O2 inh,E coli growth,HNF4A DNA FP,UCH37 DUB inh,Beta2AR agonist,FGF22 binding
COc1ccc(/C=C2\N=C(C)OC2=O)cc1[N+](=O)[O-],1.4,-3.4,0.61,-0.1,7.3,6.8,i
O=C(Cc1ccccc1)c1ccccc1C(=O)N1CCCCC1,-2.1,nt,0.663,-3.1,-1.5,2.3,i
COc1ccc(S(=O)(=O)NNC(=S)NCCc2ccccc2)c(OC)c1,3.7,37.7,0.734,0.5,3.9,3.8,i
O/N=C/C1=C(Cl)c2ccccc2CC1,-2.6,-6.1,nt,0.1,nt,-8.9,i
COc1ccccc1Cc1nc(-c2ccc(Br)o2)no1,-2.1,4.5,0.721,-0.6,2.7,3.8,i
Cc1ccccc1NC(=O)/C=C/c1ccc([N+](=O)[O-])s1,7.7,-46.6,0.706,13.2,3.3,-61.7,nt
COc1ccc(/C=C/C(=O)c2ccc(OC)cc2OC)cc1,-1.0,94.2*,0.658,-1.2,4.9,-7.2,i
CC(=O)Nc1nnc(-c2ccc3c(c2)CCCC3)o1,1.8,3.3,0.703,-0.6,5.9,-10.2,i
COc1ccc(C(=O)O)cc1NCc1ccc(C)s1,-2.6,nt,0.713,-2.5,-3.8,1.2,i
O=C(CN1C(=O)S/C(=C\c2ccc(F)cc2)C1=O)Nc1cccc(S(=O)(=O)NCc2ccco2)c1,-4.0,-7.1,0.68,3.7,6.4,-1.6,i
O=C(CSc1ncnc2c1cnn2-c1ccc(F)cc1)NCC1CCCO1 (centres undefined),1.0,-0.4,0.704,5.5,4.0,8.1,i
Cc1ccc2c(c1)N(CCCC(=O)NCc1cccnc1)C(=O)CO2,1.2,nt,0.737,-0.3,0.7,1.2,i
COCOc1ccc(/C=C/C(=O)c2c(O)cc(OCOC)cc2OCOC)cc1,-1.8,58.4,0.711,7.4,2.6,nt,nt
Cc1nnc(SCC(=O)Nc2ccc(C(N)=O)cc2)n1-c1ccccc1,4.5,-10.7,0.688,2.1,0.7,-7.1,i
Cc1cc(C)cc(N(CC(=O)NCC2CCCO2)C(=O)CN2C(=O)COc3ccccc32)c1 (centres undefined),-0.2,-4.1,0.743,-0.1,0.3,-3.9,nt
CCn1cc(Br)c(C(=O)Nc2ccc(Cl)c(Cl)c2)n1,8.9,-15.2,0.72,0.2,5.5,-4.5,nt
c1ccc2c(-c3cncc4ccccc34)cncc2c1,4.6,-2.0,0.668,3.2,-7.5,9.6,i
Cc1ccc(NC(=S)NCC2CCN(C(C)c3ccccc3)C2)cc1 (centres undefined),1.3,0.4,0.668,-0.8,3.9,5.3,i
Cn1c(SCC(=O)NCCN2C(=O)CSC2=O)nc2ccccc2c1=O,-2.5,-3.8,0.674,2.9,2.1,-1.9,nt
Cc1ccc(C)c(C2C(=O)c3ccccc3C2=O)c1,-2.3,8.3,0.61,-0.8,3.4,0.8,i
COc1ccc(OC)c(NC(=O)COC(=O)CCNc2ccccc2OC)c1,-0.2,98.1*,0.658,0.8,2.3,3.1,i
Cc1noc(C)c1CSc1ccccc1C(=O)N(C)CC(=O)Nc1cccc(F)c1,-39.7,4.7,0.653,1.6,4.9,-1.2,i
O=C(NC1CCCN(Cc2ccc(Cl)cc2)C1)c1c(F)cccc1F (centres undefined),6.6,-3.5,0.692,-7.7,5.2,2.1,i
Cc1cccc(N(C)S(=O)(=O)c2ccc3c(c2)C(C)(C)C(=O)N3C)c1,0.8,-3.4,0.796,-2.4,0.0,-8.0,i
COCCNC(=O)CCc1nnc(C2(c3ccc(Cl)cc3)CCC2)o1,-4.5,12.2,0.665,-4.2,-0.7,-5.4,i

# Quoted from the listing.
# `Cc1noc(C)c1CSc1ccccc1C(=O)N(C)CC(=O)Nc1cccc(F)c1` | LANA-H2B inh = -39.7
# `Cn1c(SCC(=O)NCCN2C(=O)CSC2=O)nc2ccccc2c1=O` | E coli growth = 0.674
# `Cc1cccc(N(C)S(=O)(=O)c2ccc3c(c2)C(C)(C)C(=O)N3C)c1` | HNF4A DNA FP = -2.4

# Later entries.
SMILES,LANA-H2B inh,ALR H2O2 inh,E coli growth,HNF4A DNA FP,UCH37 DUB inh,Beta2AR agonist,FGF22 binding
O=C(COc1cccc(-n2cnnn2)c1)N1CCOCC1,-3.2,-9.1,0.712,-0.7,4.1,-2.1,nt
O=C(Nc1ccc2c(c1)CCC2)C1CCCO1 (centres undefined),1.3,-16.2,0.748,-1.6,2.0,6.9,i
CCCNC(=S)N1CCC(Cc2ccccc2)CC1,-3.6,4.9,0.688,-0.9,0.4,9.6,i
CCCSC1=C(C#N)C(c2ccccc2C)CC(=O)N1 (centres undefined),0.4,-5.4,0.693,2.3,-1.2,-1.8,nt
NS(=O)(=O)c1cccc2c1c([N+](=O)[O-])cc1nc(O)c(O)nc12,-0.2,-36.9,nt,-6.1,1.8,1.4,i
COc1ccccc1CNC(=O)c1ccc(-c2ccccc2)cc1,0.9,-2.0,0.683,1.6,1.0,-7.4,i
COc1nccnc1NS(=O)(=O)c1ccc(NS(=O)(=O)c2ccc(NC(C)=O)cc2)cc1,0.0,nt,0.681,1.9,2.3,6.4,nt
COc1ccc(C(=O)N/N=C/c2ccc(OC)c(COc3ccc(F)cc3)c2)cc1,5.6,3.0,nt,-0.8,nt,16.6,i
Cc1ccc(CC2C(=O)N(c3ccccc3)C(=O)C2C)cc1 (centres undefined),-0.5,-2.6,0.65,1.1,6.9,-0.8,i
CC(C)[C@H](NC(=O)OC(C)(C)C)C(=O)NCC1CCC(C(=O)N[C@@H](Cc2ccccc2)C(=O)O)CC1 (some centres undefined),-0.4,-11.4,0.699,-2.8,0.0,-5.0,i
Cc1nn(-c2ccc(Cl)nn2)c(=O)c2ccccc12,-5.1,19.4,0.709,0.2,5.3,-8.4,i
Cc1cc(=O)oc2ccc(OCC(=O)NCc3ccco3)cc12,-3.0,-20.2,0.722,2.5,-8.8,5.7,nt
Cc1cc(N2CCC(C(=O)NCC3CC3)CC2)nc(-c2ccccc2)n1,1.3,-4.5,0.773,0.5,0.7,5.2,nt
COc1cccc(OCCOc2ccccc2OC(C)C)c1,-2.1,-0.3,0.718,-0.1,4.2,2.0,nt
Cc1ccc(C2CC2c2n[nH]c(=S)n2-c2ccc(Cl)cc2)cc1 (centres undefined),-1.4,36.7,0.666,-3.6,5.5,1.9,nt
COC(=O)NC1CCC(CC2CCC(NC(=O)OC)CC2)CC1 (centres undefined),8.1,-12.1,0.704,-1.5,5.5,-10.1,nt
Cc1nc(C(=O)NNC(=O)Nc2ccc(Cl)cc2)cs1,-1.6,41.3,0.64,-5.1,5.3,5.9,i
COc1ccc(NC(=O)C2CCCN2C(=O)Nc2ccccc2)cc1OC (centres undefined),5.1,-29.0,0.706,0.4,3.0,-1.2,nt
O=C(OCc1ccccc1Cl)C1CC(=O)N(Cc2ccco2)C1 (centres undefined),5.3,3.2,0.694,0.0,1.6,3.2,nt
Cc1nn(C2CCS(=O)(=O)C2)c(Cl)c1/C=C/C(=O)OCC(=O)c1cc(C)n(-c2ccc(F)cc2)c1C (centres undefined),-0.1,-13.0,0.712,1.6,1.3,3.8,i
CCCCN1CCN=C1Nc1ccccc1,1.8,-0.7,0.687,0.3,0.7,2.2,i
O=C(OCC#CCSc1nc2ccccc2s1)c1ccco1,-0.5,-1.2,0.662,-3.0,-0.4,3.9,nt
COc1ccc(Cl)cc1C(=O)NNC(=O)c1nc2nc(C)cc(C)n2n1,5.9,8.3,0.682,-0.6,7.7,-23.8,i
